Compound activity deposited in PubChem BioAssay by National Center for Advancing Translational Sciences (NCATS).
SARS PLP yeast – SARS-CoV PLP inhibition in yeast; S. cerevisiae expressing SARS-CoV PLpro, growth rescue; control for the full effect not named in the record; Potency, µM (doses to about 32.9 µM), for inactives: at the highest dose activity, positive = growth rescue; 0.19% of 330,000 active; AID 485353; note: 0% is about no effect; nearly all actives have a fitted effect of over 55% in size; growth read by luminescence after 48 h
Cruzain Triton – blocks cruzain activity in presence of Triton detergent; purified cruzain, Z-FR-AMC fluorescence, 0.01% Triton; 0.43% of 200,000 active; P25779; Potency, µM, without a hit: max response, negative = inhibition, most hits filed as inhibitors; active = well fitted curve in the direction sought with a large enough effect; inconclusive = small, poorly fitted or top-dose-only effect, or another doubt; inactive = no such curve, though single readings can be large; an effect the other way counts as inactive or inconclusive;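 note: plate controls were neutral wells for no effect and buffer without enzyme for full effect; nearly all actives have a fitted effect of over 40% in size; top concentration of the series not given in the record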
Target sequence (P25779 123-467 limits assumed): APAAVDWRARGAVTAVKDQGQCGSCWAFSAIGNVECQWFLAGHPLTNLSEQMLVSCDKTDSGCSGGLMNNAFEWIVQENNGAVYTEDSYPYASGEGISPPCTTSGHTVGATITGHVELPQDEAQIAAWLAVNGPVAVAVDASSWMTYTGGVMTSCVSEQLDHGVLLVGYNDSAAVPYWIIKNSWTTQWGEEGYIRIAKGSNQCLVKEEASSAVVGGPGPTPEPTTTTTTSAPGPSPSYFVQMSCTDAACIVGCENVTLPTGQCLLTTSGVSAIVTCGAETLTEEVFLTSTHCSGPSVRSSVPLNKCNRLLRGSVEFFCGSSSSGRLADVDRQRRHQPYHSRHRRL
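Cruzain (1.5 nM) preincubated 15 min at RT with compound in 100 mM sodium acetate pH 5.5, 5 mM DTT, 0.01% Triton X-100. Reaction started with 2 uM Z-FR-AMC; AMC fluorescence (ex 360/em 450 nm) change over 60 s gave rate.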
Cruzain inh noDet – cruzain (T. cruzi) inhibition without detergent; P25779; purified cruzain, Z-FR-AMC fluorescence, no detergent; Potency, µM, without a hit: max response, negative = inhibition, hits mostly inhibitors; 2.3% of 200,000 active; active = well fitted curve in the direction sought with a large enough effect; inconclusive = small, poorly fitted or top-dose-only effect, or another doubt; inactive = no such curve, though single readings can be large; an effect the other way counts as inactive or inconclusive;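 note: plate controls were enzyme without inhibitor for no effect and buffer without enzyme for full effect; nearly all actives have a fitted effect of over 40% in size; top concentration of the series not given in the record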
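Detergent-free condition (0.00005% Triton X-100) in acetate buffer pH 5.5 with DTT. 1.5 nM enzyme and compound were pre-mixed 15 min, then 2 uM Z-FR-AMC substrate added; reaction progress from fluorescence change between first and third reads (60 s).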
RE007 growth inh – less growth of the S. pombe RE007 Vpr strain; S. pombe RE007 Vpr strain, BacTiter-Glo ATP luminescence, 24 h; control for the full effect not named in the record; Potency, µM (doses to about 92.2 µM), inactives show top-dose activity change, negative = less growth; 0.21% of 360,000 active; AID 651644; active = well fitted falling curve with a large enough effect; inconclusive = small, poorly fitted or top-dose-only effect; inactive = no such curve, though single readings can be large or run the other way;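 note: % is set by controls: 0 for no effect and ±100 for the full control effect; nearly all actives have a fitted effect of over 50% in size; the assay follows cell death caused by Vpr and the record does not say whether a fall means rescue or toxicity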
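Fission yeast RE007 carrying one integrated HIV-1 vpr copy, seeded at OD 0.01 in PMG+AL medium with 23 nL pinned compound. Grown 24 h at 30 degrees; viability read by BacTiter-Glo luminescence after 5 min.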
2A StopGo – FMDV 2A StopGo reporter, luciferase signal; Potency, µM (doses to about 57.9 µM), for inactives: at the highest dose signal change, negative = less light; human cells with a luciferase reporter of 2A StopGo recoding; control for the full effect not named in the record; 1.2% of 410,000 active; AID 1159524; active = well fitted falling curve with a large enough effect; inconclusive = small, poorly fitted or top-dose-only effect; inactive = no such curve, though single readings can be large or run the other way; tested in HEK293T cells; note: % is set by controls: 0 for no effect and ±100 for the full control effect; nearly all actives have a fitted effect of over 45% in size; luciferase light after 4 h
NS1 function inh – influenza NS1 inhibition; S. cerevisiae slowed by influenza A NS1, growth recovery by OD600; Potency, µM (titrated, usually from 46.1 µM), without a hit: at the highest dose activity, positive = more growth; 0.4% of 270,000 active; note: actives are rising curves; nearly all actives have a fitted effect of over 50% in size
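A cell-based growth assay was used: compounds that relieve NS1-induced slow growth of budding yeast raise OD600. Assay medium was yeast nitrogen base with ammonium sulphate and -URA supplement, pH 6.0, with 2% galactose.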
Lassa entry inh – blocks Lassa virus binding to or entry into cells. Lassa virus pseudotype entry inhibition, cell reporter; control for the full effect not named in the record. Potency, µM (series often up to 37.9 µM), for the others: at the top dose activity change, negative = inhibition, most hits filed as inhibitors. 1.2% of 300,000 active. AID 540256; active means well fitted inhibition curve with a large enough effect; inconclusive means small, poorly fitted or top-dose-only effect, or effect the other way; inactive means flat fitted curve, though single readings scatter; tested in HEK293 cells; note: % is set by controls: 0 for no effect and ±100 for the full control effect; nearly all actives have a fitted effect of over 50% in size; luciferase read-out
MARV entry inh – blocks Marburg virus binding to or entry into cells; Potency, µM (titrated, usually from 37.8 µM), inactives show at the top dose activity change, negative = inhibition, most hits filed as inhibitors; Marburg virus pseudotyped entry inhibition, cell reporter; control for the full effect not named in the record; about a third of the inactives were read at about 46 µM; 1.8% of 300,000 active; active = well fitted inhibition curve with a large enough effect; inconclusive = small, poorly fitted or top-dose-only effect, or effect the other way; inactive = flat fitted curve, though single readings scatter; tested in HEK293 cells; about a fifth of its hits are not listed in these tables; note: % is set by controls: 0 for no effect and ±100 for the full control effect; luciferase read-out
* hit, by the source's call; u = inconclusive; x = no result given; & = joins results of further samples; [ ] = remark or other dose. Unless noted, calls come from the whole dose curve; as a rule, active means well fitted rising curve with a large enough effect; inconclusive means small, poorly fitted or top-dose-only effect; inactive means no such curve, though single readings can be large or run the other way. Potency is the fitted concentration of half-maximal effect.

Structure | SARS PLP yeast | Cruzain Triton | Cruzain inh noDet | RE007 growth inh | 2A StopGo | NS1 function inh | Lassa entry inh | MARV entry inh
CN1CCN(c2nc3c(c(=O)[nH]c(=O)n3C)n2Cc2ccccc2F)CC1 | u | x | x | -7% | -3% | 6% | -3% | 4%
N#Cc1c(F)cccc1N1CCN(Cc2ccc3c(c2)OCO3)CC1 | -1% | x | x | -18% | -11% | -10% | -13%[46.1 µM] | u
C/C=C(\C)C(=O)Nc1cccc(C2=NOC3(C2)C[C@@H](C(N)=O)N(C(=O)c2ccccc2C(=O)c2ccccc2)C3)c1 (stereo not given in full) | -1% | x | x | -3% | -10% | -2% | x | x
C=CCn1c(SCC(=O)Nc2nccs2)nnc1-c1cc2cccc(OC)c2o1 | 3% | 5.5% | 25µM* | 5% | 5% | 3% | u | u
O=C(C[N+]12CCC(CC1)C(O)C2)c1ccc(Br)cc1 (stereo not given) | -1% | x | x | 3% | -20% | 5% | x | x
O=C(Cc1ccc(Cl)c(Cl)c1)N/N=C/c1cccnc1 | -5% | x | x | 5% | 0% | -28% | -1%[46.1 µM] | -22%[46.1 µM]
CCOc1ccc(C(=O)NCC(=O)OCC(=O)Nc2cccc(S(=O)(=O)N3CCCC3)c2)cc1 | 1% | x | x | 13% | 38%[activator] | -37% | x | x
COc1cc(OC)c(NC(=O)Cc2cccs2)cc1Cl | -8% | x | x | 5% | 11% | -37% | 12% | 0%
CC(OCC(O)CNCC1COc2ccccc2O1)c1ccc(Cl)cc1 (stereo not given) | -4% | x | x | -8% | -10% | -2% | 11% | -20%[46.1 µM]
COc1cc(OC)cc(C(=O)Nc2ccc(NC(=O)c3ccco3)c(Cl)c2)c1 | -2% | x | x | -9% | u | x | u | 9%[46.1 µM]
CCOc1cccc(C(=O)NC(=S)Nc2cccc(NC(=O)c3ccccc3Cl)c2)c1 | 11% | -4.5% | -14% | -3% | -20% | 17% | u | u
CN1CCN(C(=O)c2ccc(Cl)cc2)CC1 | 2% | x | x | 2% | -6% | 7% | 18% | -15%
Cc1cc(OCC(=O)N2CCN(CCc3ccncc3)CC2)ccc1Cl | x | -0.4% | 12% | x | -13% | x | 5%[46.1 µM] | -14%[46.1 µM]
CCC(=O)NC(=S)Nc1ccccc1OC | -6% | -5.0% | -2% | -8% | 6% | 5% | 11% | 9%
c1ccc(OCCCn2nnc(-c3cccnc3)n2)cc1 | 3% | -0.7% | -2% | -12% | 5% | -11% | 9% | -1%
Cc1cc(C)c(OCCCCN2CCC(C)CC2)c(Br)c1 | -2% | x | x | -23% | -1% | -6% | u | u
CCC(CC)NC1CCCCC1OC (stereo not given) | 8% | 1.3% | 10% | -10% | -11% | -2% | -6% | 7%
Cc1cc([N+](=O)[O-])nn1Cc1ccccc1F | 1% | -2.4% | -5% | -1% | -10% | 15% | -18% | -18%
O=C(COC(=O)c1cnccn1)c1ccc([N+](=O)[O-])cc1 | -1% | x | x | 10% | -4% | 2% | -3%[46.1 µM] | 7%[46.1 µM]
O=c1[nH]c(-c2ccccc2)ncc1OCc1ccccc1 | x | x | x | -5% | 14% | x | 3% | u
Cc1ccc(NC(=O)COC(=O)CCC(=O)c2cccs2)cc1C | -2% | x | x | 0% | 8% | -6% | 0% | -2%[46.1 µM]
Cc1cc(NS(=O)(=O)c2ccc(NC(=O)c3ccc(Cl)cc3Cl)cc2)no1 | 1% | x | x | -9% | -6% | -8% | u | 17%[46.1 µM]
CC(=O)C1=C(O)C(=O)N(CCN2CCOCC2)C1c1ccccc1 (stereo not given) | 4% | -7.5% | -1% | -6% | x | 1% | 2% | 0%
CN(C)c1ccc(S(=O)(=O)NCC(=O)NCc2ccccc2)cc1[N+](=O)[O-] | 0% | x | x | 17% | -2% | 4% | x | x
COc1ccc(-c2[nH]ncc2C(=O)NCc2ccc(F)cc2)cc1 | x | 0.3% | -5% | x | -9% | x | x | -3%[46.1 µM]
COc1ccccc1NC(=O)CSc1nnc(NC(=O)c2ccco2)s1 | -8% | x | x | -15% | 8% | -1% | 3% | -12%
COc1ccc(C(C)=O)cc1CN1C(=O)C(C)N(c2ccc(C)cc2)C1=O (stereo not given) | 8% | -2.1% | 11% | 5% | -25% | -11% | 1% | -11%
O=C(CN(CC1CCCO1)C(=O)CNS(=O)(=O)c1ccc(Cl)cc1)NC1CCCCC1 (stereo not given) | 3% | x | x | -9% | 27% | -5% | -3% | -10%[46.1 µM]
c1coc(Cn2c(SCc3nc4ccccc4[nH]3)nnc2-c2cccs2)c1 | -4% | 0.9% | -4% | -5% | -7% | 3% | 24% | -9%
CCC(C)(C)NC(=O)C(c1cccs1)N(C(=O)c1ccn[nH]1)c1ccccc1 (stereo not given) | 0% | x | x | -1% | -27% | 2% | -14% | -7%
O=C(Nc1ccc(F)cc1)C(=O)C1C(=O)Nc2ccccc21 (stereo not given) | -1% | x | x | -10% | 23% | -5% | x | x
COc1ccc(S(=O)(=O)N2CCCCC2)cc1C(=O)Nc1cc(C)on1 | 2% | x | x | -5% | 3% | 4% | x | x
COc1ccc(NC(=O)c2ccccc2[N+](=O)[O-])cc1OC | -19% | -0.3% | -4% | 2% | -2% | 14% | 4% | -1%
O=C(CSC1=Nc2ccccc2N=C(c2ccc(F)cc2)C1)Nc1cccc(C(F)(F)F)c1 | x | -3.7% | -7% | x | -23% | x | u | x
O=C(CCn1ccc2cc(S(=O)(=O)N3CCCC3)ccc21)NCc1ccccc1 | -11% | x | x | 10% | -11% | 3% | x | x
O=C(CCS(=O)(=O)c1cccc2nsnc12)N1CCN(c2ccccc2F)CC1 | 3% | 0.6% | -4% | -14% | -14% | -3% | -7% | -1%
Cn1nc(-c2ccccc2)c(-c2ccccc2)c(C(=O)Nc2ccc(S(N)(=O)=O)cc2)c1=O | x | -1.7% | 28% | x | -16% | x | -3%[46.1 µM] | 4%[46.1 µM]
COc1ccccc1N1CCN(S(=O)(=O)c2ccc(-c3cnc(C4CC4)o3)cc2)CC1 | 2% | -1.5% | 11% | -5% | u | 28% | u | x
Cc1c(C)c2c(OCC(=O)NCC(C)C)cc3c(c2oc1=O)CCC(C)(C)O3 | 0% | x | x | -5% | 18µM* | 2% | x | x
O=C(NCc1nnc(SCC(=O)N2CCN(c3ccccc3)CC2)o1)c1c(F)cccc1F | 1% | x | x | -10% | u | 2% | 28% | 0%
CN1CC(C(=O)c2cccc(C(F)(F)F)c2)C(c2ccc(Cl)cc2)C1 (stereo not given) | -2% | x | x | 1% | u | 9% | u | u
N#C/C(=C\c1ccc(O)c(O)c1)C(=O)NCCc1ccccc1 | x | -7.9% | 8% | -14%[18.4 µM] | -14% | -16% | 14% | u
COC(=O)C1CCN(C(=O)c2ccc(OC3CCN(Cc4ccccn4)CC3)cc2)CC1 | 0% | x | x | -8% | 9% | -3% | 0% | u
O=[N+]([O-])c1ccc(CSC2=NCCN2)cc1 | 0% | x | x | -16% | -9% | 3% | x | x
C/C(=N/NC(=O)CNC(=O)COc1cccc(C)c1)c1ccco1 | 1% | x | x | 3% | 2% | 4% | -1% | u
Cc1ccc(Nc2nc(-c3c(C)nc4ccccn34)cs2)cc1 | -26% | -14% | 6% | u | 25µM* | -34% | u | -41%
C/C(=N\NC(=O)Cn1nc(C)c([N+](=O)[O-])c1C)c1ccc(O)cc1 | -21% | -3.6% | -10% | x | -21% | 5% | u | u
CCc1ccc(NC(=O)C2CCN(c3cc(C)nc4c(-c5ccc(Cl)cc5)c(C)nn34)CC2)cc1 | x | 1.4% | -7% | x | -20% | x | 4%[46.1 µM] | -3%[46.1 µM]
COC(=O)c1ccc(C)c(NC(=O)c2nn(C)c(=O)c3ccccc23)c1 | 3% | 0.8% | 6% | 3% | 4% | 7% | 17% | -13%
Cc1ccc(C(C)C)c(OCC(=O)N/N=C/c2ccc(S(=O)(=O)O)o2)c1 | 0% | x | x | 3% | -1% | -4% | x | x

Going on with the list.
Structure | SARS PLP yeast | Cruzain Triton | Cruzain inh noDet | RE007 growth inh | 2A StopGo | NS1 function inh | Lassa entry inh | MARV entry inh
COc1cc(OC)cc(C(=O)O/N=C(\N)c2ccccn2)c1 | -1% | x | x | u | -1% | -42% | x | x
COc1cc(NC(=O)c2nnn(CC(=O)Nc3ccccc3)c2N)cc(OC)c1 | x | 0.5% | -20% | x | -8% | x | 9%[46.1 µM] | x
CCn1c2ccccc2c2nnc(SCC(=O)NC3CCS(=O)(=O)C3)nc21 (stereo not given) | 16% | -0.7% | 6% | -12% | -19% | 5% | 12% | -21%
N#Cc1ccsc1NC(=O)c1cnccn1 | -4% | -3.0% | -6% | -10% | 23% | -55% | 15% | 14%
O=C1CC[C@@H](CN(Cc2ccccn2)Cc2nc(-c3ccc(C(F)(F)F)cc3)no2)N1 | 0% | x | x | 7% | -12% | 1% | x | x
CCOC(=O)c1ccc(NC(=O)C2CCCN(c3cnccn3)C2)cc1 (stereo not given) | -36% | -3.1% | 15% | -6% | 1%&17% | -49% | u | 0%[46.1 µM]
CC(=O)Nc1ccc(NC(=O)C/C(C)=N/NC(=O)C(=O)N2CCCC2)cc1 | -2% | -1.1% | 1% | -2% | 14% | 1% | 17% | 3%
O=C(Nc1cccc(-c2nc3ccccc3s2)c1)c1cc(-n2cnnc2)ccc1Cl | 5% | -12% | u | 3% | 2% | 19% | x | x
CN1C(=S)N2CCCN2C1c1ccccc1 (stereo not given) | -1% | x | x | -10% | -9% | -7% | 11% | 2%
